# Screens: PubChem BioAssay, several laboratories
# Ecoli rRNA inh: inhibitors of bacterial rRNA selective over humanized ribosomes. actives 1.6% (n = 350,000). GFP signal change (wild-type ribosome), % (test concentration not listed). AID 720706. E. coli WT GFP vs humanized-ribosome RFP mutants, fluorescence, 24 h; hits give low values; DMSO median 0, no signal -100;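 active means significant combined selectivity score with lowered wild-type GFP, culture density cut under 30%, mutant RFP and density less affected; inactive means any of these conditions unmet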; further: one replicate is shown; some compounds called inactive have numbers as strong as hits
# Calb FLC: C. albicans growth modulation with fluconazole; C. albicans CaCi-2 (fluconazole-resistant clinical isolate) + fluconazole, Alamar Blue growth, 48 h; growth inhibition, % (test concentration not listed); actives 0.57% (n = 300,000);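 active means most replicates above 75%; inconclusive means exactly half above 75%; inactive means most below 75%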;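 further: all wells also contain fluconazole at 8 µg/ml as a sub-toxic cotreatment; 0% = median of DMSO wells and 100% = median of geldanamycin control wells; wells of about 8 µL received 7.5 nL stock; the first replicate is given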
# B2AR ag: agonists of human beta-2 adrenergic receptor inducing internalization | P07550 | Am2.2-beta2AR cells, FAP receptor internalization, flow cytometry; reference of the scale not given here | response, % (test concentration not listed) | actives 0.43% (n = 340,000);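 active means response above a set limit, near 3 SD of response in nonfluorescent compounds, cut at about 42% in these data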;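 further: stock transfer was 100 nL into about 11 µL; a reference agonist was the positive control; negative values mostly stem from fluorescent compounds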
# Target sequence (P07550 whole entry, looked up): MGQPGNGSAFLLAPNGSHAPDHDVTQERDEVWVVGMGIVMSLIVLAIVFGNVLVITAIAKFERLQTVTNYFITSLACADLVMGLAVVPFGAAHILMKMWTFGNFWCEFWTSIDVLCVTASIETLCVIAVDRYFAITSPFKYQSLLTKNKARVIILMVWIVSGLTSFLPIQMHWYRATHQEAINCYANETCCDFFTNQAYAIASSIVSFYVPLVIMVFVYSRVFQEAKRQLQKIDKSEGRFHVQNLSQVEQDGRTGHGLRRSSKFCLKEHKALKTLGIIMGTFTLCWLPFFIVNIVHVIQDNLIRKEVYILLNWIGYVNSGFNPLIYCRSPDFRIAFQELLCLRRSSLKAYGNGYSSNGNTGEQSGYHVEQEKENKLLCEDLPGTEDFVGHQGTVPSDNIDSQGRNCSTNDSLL
# Beta cell apopt: blocks beta cell apoptosis; INS-1E cytokine-induced death, ATP luminescence, 48 h; percent of positive-control rescue, neutral wells zero; protection from apoptosis, % (no concentration beside the values); actives 0.8% (n = 300,000);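 active means all replicates at 75% or more, or half of them and the mean; inconclusive means half reach 75% but not the mean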;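 further: 0% = cytokine-treated negative control wells and 100% = positive control rescue; higher means more ATP so stronger rescue from cytokine killing; wells of about 40 µL received 100 nL stock; the first replicate is given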
# ALR inh: inhibitors of human sulfhydryl oxidase ALR; inhibition, % (no concentration beside the values); purified ALR, DTT oxidation, H2O2 HRP-luminol luminescence; actives 3.8% (n = 290,000);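 active means mean and each replicate at 75% or more; inconclusive means only one of the two met; inactive means neither met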;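 further: stock transfer was 7.5 nL into about 7.5 µL; 0% = neutral wells and 100% = wells with inactivated enzyme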
# Target sequence (P55789 whole entry, looked up): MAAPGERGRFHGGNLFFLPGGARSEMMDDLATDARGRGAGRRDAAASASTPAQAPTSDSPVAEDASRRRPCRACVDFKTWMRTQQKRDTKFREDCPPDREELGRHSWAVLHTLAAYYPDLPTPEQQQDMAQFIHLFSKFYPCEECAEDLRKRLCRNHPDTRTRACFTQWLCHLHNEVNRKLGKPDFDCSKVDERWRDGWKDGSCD
# LANA-H2B inh: blocks KSHV LANA binding to histone H2A/H2B. Q9QR71. cell-free LANA-H2A/H2B peptide, fluorescence polarization. inhibition, % (concentration not given with the values). actives 0.6% (n = 320,000); in the data active means inhibition mostly above about 10%, no sharp cut-off; inactive means mostly below about 6.7%;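 further: stock transfer was 7.5 nL into about 10 µL; 0% = median of vehicle wells and 100% = median of positive control wells; one replicate is shown; the record names a cut of 25% in any replicate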
# Bfl-1 A1 inh: inhibitors of the anti-apoptotic protein A1, read as caspase activation; MEF A1-2A-BIM cells, Caspase-Glo 3/7 luminescence, 3 h; percent of clofoctol response, vehicle zero; caspase activation, % (concentration not given with the values); actives 0.066% (n = 330,000);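 active means over half of replicate activation scores above 10%, or exactly half above 10 with the replicate mean above 10; inconclusive means replicate mean below 10 yet half the replicates above 10; inactive means over half of replicates below 10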;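 further: wells of about 30 µL received 50 nL stock; many hits fall short of the cut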
# T cruzi inh: T. cruzi replication inhibition | inhibition, % (test concentration not listed) | actives 1.4% (n = 300,000) | T. cruzi beta-gal in NIH3T3, luminescence, 90 h;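 active means mean inhibition across valid replicates above about 55%, limit read from the data; inconclusive means mean below that limit but half or more replicates reach it; inactive means mean below it, under half of replicates reach it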;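 further: signal also drops with host cell toxicity which is not excluded here; 0% = plate median of DMSO wells and 100% = zero luminescence signal; higher percent means less beta-gal luminescence so fewer parasites; stock transfer was 50 nL into about 50 µL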
# Ecoli rRNA inh OD600: second read-out of Ecoli rRNA inh, no call of its own (marks repeat the call); OD600 change, %; measured here: OD600 growth;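 optical density of the mix in the first replicate; 0 = DMSO median and -100 = no signal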
# Ecoli rRNA inh RFP: recorded beside Ecoli rRNA inh, whose call it bears; RFP signal change, %; measured here: RFP humanized mutant strains;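 first replicate; 0 = DMSO median and -100 = no signal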
# * = called active by the depositor; ? = inconclusive; nt = not tested or not shown. This is a subset. The share of hits here may be higher or lower than overall.
# Each structure is followed by: Ecoli rRNA inh	Ecoli rRNA inh OD600	Ecoli rRNA inh RFP	Calb FLC	B2AR ag	Beta cell apopt	ALR inh	LANA-H2B inh	Bfl-1 A1 inh	T cruzi inh
O=C(COC(=O)c1ccccc1)Nc1ccccc1Br
  nt	nt	nt	-1	1	-3	-2	0.9	0.6	-18
CC(C)COC(=O)c1ccc(NC(=O)C2C3CCC(C3)C2C(=O)O)cc1 (configuration not stated)
  nt	nt	nt	-9	4	nt	-2	6.4	0.3	-6
COc1ccc(-c2nc(CS(=O)(=O)CC(=O)NCCCN3CCN(C)CC3)c(C)o2)cc1
  14	16	-0.8	1	-4	-5	99*	1.4	-0.1	24
COc1ccc(NC(=O)CS(=O)CC(=O)Nc2ccc(F)cc2F)cc1 (configuration not stated)
  nt	nt	nt	-5	5	nt	3	-3.7	-0.4	-4
O=C(NNC(=O)c1cc(S(=O)(=O)N2CCCCC2)ccc1Cl)c1ccccc1O
  -15	-4	0.3	nt	1	6	nt	1.1	1.7	nt
COc1ccc(C(=O)c2sc(Nc3ccccc3)c(C(=O)Nc3ccc(OC)c(OC)c3)c2N)cc1
  nt	nt	nt	1	8	-2	-2	-0.9	-1.2	4
Cc1cc(NC(=O)CCC(=O)N(c2ccccc2)C(C(=O)NC2CCCCC2)c2cccs2)no1 (configuration not stated)
  nt	nt	nt	-8	-4	1	-10	5.9	-1.1	28
COc1ccc(/C=C/C(=O)NNc2cc(=O)n(C)c(=O)n2C)cc1OC
  0	-2	0.5	7	-6	-3	-16	-9.0	-0.1	9
COc1ccc2[nH]c3c(c2c1)CCC/C3=N\N
  5	-3	1.0	7	-6	-4	-1	-0.6	0.6	1
CCN(CC(=O)NC1CCS(=O)(=O)C1)S(=O)(=O)c1ccc(Cl)cc1C(F)(F)F (configuration not stated)
  -5	3	-3.7	-1	-12	-1	3	-1.6	-1.6	6
COc1ccc(C(=O)N2c3ccccc3CC2C)cc1OC (configuration not stated)
  nt	nt	nt	5	3	-1	-1	-0.8	1.0	-5
Cc1sc(NC(=O)CSc2ncn(-c3ccccc3)n2)nc1-c1ccccc1
  nt	nt	nt	-3	-6	nt	-4	3.3	1.0	37
COc1ccc(NC(=O)CSc2nc3c([nH]c4ccccc43)c(=O)n2C)cc1
  -3	7	-3.5	-4	-2	-3	0	11*	0.2	-10
Nc1nonc1C(=O)NCCNS(=O)(=O)c1ccc(F)cc1
  nt	nt	nt	-4	65*	nt	-15	0.7	0.6	-2
C#CC[N+](C)(C)CCCCCCCC
  2	-1	-1.9	-35	6	0	0	2.7	-0.1	-12
Cc1cc(C(=O)Nc2ccccc2)c(C)o1
  nt	nt	nt	-11	-1	3	23	1.6	-4.0	0
CCOP(=O)(OCC)/C(=N/OC(=O)c1cccc([N+](=O)[O-])c1)C(N)=O
  25	6	2.8	-2	7	3	-3	-5.3	1.3	-1
COc1ccc(N2CCN(C(CNS(=O)(=O)c3ccc4c(c3)OCCO4)c3ccco3)CC2)cc1 (configuration not stated)
  nt	nt	nt	-27	14	-1	17	-2.6	0.5	12
COC(c1ccc(Cl)cc1)(c1ccc(Cl)cc1)C(Oc1nccc(C)n1)C(=O)O (configuration not stated)
  -3	-10	12	5	10	4	nt	-3.1	0.0	-16
CN(C)S(=O)(=O)c1ccc(C(=O)NCC(C)(C)CN=C2NS(=O)(=O)c3ccccc32)cc1
  0	-2	-0.7	-1	1	-1	nt	0.7	0.2	6
CCOC(=O)c1ccccc1NC(=O)CSC(C)C(=O)Nc1cc(C)on1 (configuration not stated)
  4	4	1.5	-1	1	0	5	-1.1	0.2	0
c1ccc(CSc2ncnc3c2oc2ccccc23)cc1
  nt	nt	nt	-3	1	3	-7	-5.0	1.0	-4
Cc1c(C(=O)OCC(=O)Nc2ccccc2OC(F)F)cccc1[N+](=O)[O-]
  8	0	-1.0	-6	-1	-7	1	-0.6	0.0	-5
Cc1ccc(NC(=S)Nc2cccc3ccccc23)cc1F
  -4	-7	2.2	5	5	20	-29	-0.8	0.1	0
CCc1cc(C(=O)NN2C(=O)NC3(CCCCC3)C2=O)sc1C
  2	6	0.0	nt	1	4	-3	-9.5	2.1	nt
O=C(Nc1ccnn1C1CCN(C(=O)c2ccc(F)c(Cl)c2)CC1)C1CC1
  11	11	1.7	-6	1	nt	-9	0.7	1.3	-5
COc1cccc(NS(=O)(=O)NC(=O)c2cn(C)c3ccccc23)c1
  8	10	0.9	15	4	-3	5	-1.2	-0.1	-2
O=C(O)c1cnc2ccccc2n1
  nt	nt	nt	-3	-2	-5	-15	2.2	0.2	-1
Nc1ncc([N+](=O)[O-])c(N2CCCCCC2)n1
  5	8	-2.9	-10	2	-26	0	1.4	0.2	5
O=C(Nc1ccccc1N1CCCC1)c1cccc(F)c1
  12	14	5.1	-1	5	3	99*	0.3	0.8	-3
Cc1nc2scc(C)n2c(=O)c1S(=O)(=O)NCc1ccc(F)cc1
  12	8	1.4	0	-11	-7	-5	-1.7	0.2	19
O=C(Cn1nc(C(=O)O)c2ccccc2c1=O)Nc1cc(C(F)(F)F)ccc1-n1cncn1
  nt	nt	nt	nt	-3	-2	5	5.3	0.0	nt
COC(=O)c1ccccc1S(=O)(=O)NCc1nc2nc(C)cc(C)n2n1
  3	0	0.2	3	2	-10	-7	-2.8	0.8	-18
COc1ccccc1C1(O)CCN(CC(=O)Nc2nc(-c3ccccc3)cs2)CC1
  -34	-40	14	19	0	-9	-77	5.4	-0.2	2
CCCCCn1nnc2c(=O)oc3ccccc3c21
  -1	8	-4.7	5	-2	-12	-3	-2.6	0.7	-7
COc1ccc2cc3c(N)nn(C(=O)c4ccccc4[N+](=O)[O-])c3nc2c1
  -1	6	4.7	-32	8	-22	-14	-1.9	-0.3	14
Nc1cccc(-c2cnc3ccccc3n2)c1
  -3	-2	-6.1	-8	6	-2	99*	14	-6.4	-24
COc1ccc(/C=C/C(=O)N(C(C)C)C(C)C)cc1Br
  nt	nt	nt	16	5	9	-1	2.5	-0.1	24
O=C(Nc1ccc2c(c1)OCCO2)c1ccc(Cl)c([N+](=O)[O-])c1
  nt	nt	nt	-19	6	7	-2	-0.7	-1.2	-20
CCN(CC)C(=O)Cn1c(=O)n(CC(=O)N2CCCCC2)c(=O)c2sccc21
  -1	-1	-1.1	-8	4	-6	-1	6.4	-0.2	-20
COc1cc(/C=N/NC(=O)Cn2nc([N+](=O)[O-])cc2C)cc(Br)c1OCc1ccccc1
  nt	nt	nt	0	4	8	0	-2.1	0.0	28
Cc1ccc(-n2nc3ccc(NC(=S)NC(=O)/C=C/c4ccco4)cc3n2)cc1
  2	2	8.1	-5	-1	4	2	-11	0.2	-24
CC(C)OCCCNc1ncc2c(n1)CC(c1ccccc1)CC2=O (configuration not stated)
  15	10	3.3	?	-3	-1	-42	3.0	0.1	-8
COc1ccc(CC(=O)NCc2nnc(SCc3ccc(C)cc3)n2C)cc1
  nt	nt	nt	-9	1	-5	-2	0.5	0.3	-6
Cc1cccc(Oc2ccc3c(c2)cc(C(=O)O)n3C)c1
  -38	-52	-7.3	36	8	1	98*	2.2	0.5	-18
Cc1cccc(C)c1-n1c(C)nn(CC#N)c1=O
  16	12	0.8	-11	4	-4	-12	-2.9	0.5	-4
O=c1[nH]c2ccccc2n1CCCN1CCCCC1
  13	21	-0.2	-42	15	1	-6	-1.3	1.2	-1
Cc1onc(-c2ccccc2)c1C(=O)NC(=S)Nc1sc2c(c1C#N)CCC(C)C2 (configuration not stated)
  nt	nt	nt	5	11	0	-9	1.8	-0.2	5
CCCN(CCC)CC(O)Cn1cc(/C=C/C(=O)c2ccccc2)c2ccccc21 (configuration not stated)
  -48	-78	-14	1	19	nt	nt	nt	nt	41
Cn1c(=O)n(C)c2cc([N+](=O)[O-])c(N3CCN(S(=O)(=O)c4ccc(C(C)(C)C)cc4)CC3)cc21
  nt	nt	nt	36	48*	31	1	-0.5	-0.7	46
Cc1ccc(S(=O)(=O)Oc2ccccc2/C=N/NC(N)=S)cc1
  nt	nt	nt	6	5	37	0	0.2	0.3	-24
Cc1c(N2C(=O)CS/C2=N\N=C\c2ccc(Br)cc2)c(=O)n(-c2ccccc2)n1C
  nt	nt	nt	-14	3	-3	48	2.5	0.2	4
CC(OC(=O)CCCN=C1NS(=O)(=O)c2ccccc21)C(=O)Nc1ccc(F)c(F)c1F (configuration not stated)
  3	6	-0.8	6	9	nt	-4	-5.0	0.0	-12
CCn1ccnc1CN(C)C(=O)c1ccc2nc(Cc3ccc(OC)cc3)oc2c1
  1	2	-0.4	-10	-4	-1	-3	0.3	2.2	4
NC(=O)C(c1ccc(Cl)cc1)c1ccc(Sc2ccc(Cl)cc2)nn1 (configuration not stated)
  nt	nt	nt	1	-3	13	-8	3.9	0.6	12
COC(=O)C(=C/C=C/N1CCOCC1)C(=O)OC
  nt	nt	nt	-17	nt	0	-6	-3.5	-1.2	-1
CCOc1ccc(NC(=O)CSc2nc(C)c3c(c2C#N)CCCC3)cc1
  nt	nt	nt	1	2	-5	-24	-1.7	-0.7	21
CC(C)(C)c1ccc(CN(Cc2ccco2)Cc2nnnn2C2CCCC2)cc1
  nt	nt	nt	11	6	22	-1	1.7	0.1	41
Cc1oc(-c2ccc3c(c2)OCCO3)cc1C(=O)NC(Cc1ccccc1)C(=O)O (configuration not stated)
  2	12	-0.6	13	-1	-3	66	1.6	-0.6	-11
NC1=NC(=O)S/C1=C\c1ccc(O)cc1
  nt	nt	nt	-12	5	nt	71	-4.5	-3.8	-14

# Carrying on.
# Each structure is followed by: Ecoli rRNA inh	Ecoli rRNA inh OD600	Ecoli rRNA inh RFP	Calb FLC	B2AR ag	Beta cell apopt	ALR inh	LANA-H2B inh	Bfl-1 A1 inh	T cruzi inh
Cc1ccc(NC(=O)ON=C2CCCC2)cc1
  9	7	6.9	-2	3	-1	0	-0.8	-2.0	5
CCn1c(CC(=O)Nc2ccc(C)cc2)nnc1SCC(=O)NCCc1ccccc1
  nt	nt	nt	39	-11	6	-28	8.6	0.5	-1
COc1ccc(CC(C(=O)Nc2ccc(OC)cc2)c2nn[nH]n2)cc1 (configuration not stated)
  3	12	-0.4	1	-10	1	2	-1.6	?	-3
CC(Cl)C(=O)Nc1cc(C(F)(F)F)ccc1N1CCOCC1 (configuration not stated)
  -5	-10	1.0	5	-2	3	-4	0.0	0.4	5
Cc1c(C(=O)Nc2ccc(Cl)cc2)c2ccccn2c1C(=O)c1ccc(F)cc1
  nt	nt	nt	-9	0	11	-1	3.7	-0.1	4
CCN(CC)C(=O)c1cc(Cl)ccn1
  11	6	1.5	7	-5	-4	2	-3.9	0.5	-13
O=c1[nH]c(SCc2cccc(Cl)c2)nc2[nH]ncc12
  -18	-27	-7.8	9	-4	9	22	1.5	-0.9	-27
COc1cc([N+](=O)[O-])ccc1NC(=O)Nc1cccnc1
  0	4	-0.5	24	-1	-2	-8	1.2	0.0	3
